YjeE inh: inhibitors of E. coli YjeE (TsaE) | purified YjeE, fluorescence polarisation of a bound ADP probe | Potency, µM | 71,000 compounds, 0.05% hits; active = well fitted falling curve; inconclusive = weaker or top-dose-only fall, or a rising curve; inactive = flat or poorly fitted curve;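 further: top concentration of the series not given in the record; excess ADP was the control for the full effect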
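Purified YjeE (10 uM) with BODIPY Texas Red-labeled ADP probe (2 uM); compounds pin-transferred, 15 min at room temperature. Binding inhibition read as decreased fluorescence polarization; ADP titration as control.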
Bst PK mod: modulators of Bacillus stearothermophilus pyruvate kinase. partly purified Bacillus stearothermophilus pyruvate kinase, luminescence ATP production; ribose 5-phosphate activator present at AC10. 51,000 compounds, 1.2% hits. Potency, µM. AID 361; in the data active means potency below about 11 µM; inconclusive means mostly about 12 µM to 25 µM; inactive means weaker than that;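 the screen sought inhibitors and activators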;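 further: potency means the concentration at half of the fitted maximal effect; scaled between full activation by ribose 5 phosphate and full inhibition by luteolin; about four in five hits inhibit and the cells do not say which; series up to 57 µM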
* = called active by the depositor; i = inactive; ? = inconclusive; . = not tested or not shown. Not all compounds are listed; the hit share may differ from the screen's.

| molecule | YjeE inh | Bst PK mod |
| --- | --- | --- |
| O=C(COC(=O)c1cc(S(=O)(=O)N2CCCCC2)ccc1N1CCOCC1)NC1CCCCC1 | i | >57 |
| CCC1Oc2ccccc2N(CC(=O)NCCCN2CCCCC2CC)C1=O (stereo not drawn) | i | >57 |
| Cc1ccccc1-c1nnc(-c2ccccc2)o1 | i | . |
| CC(=O)N(C(C)=O)c1ncc2c([nH]c3ccccc32)c1C#N | i | . |
| O=C(NCCc1ccccc1)C(c1cccs1)N(C(=O)c1csnn1)C1CC1 (stereo not drawn) | i | >57 |
| CSc1nc2c(c(=O)n1-c1ccc(F)cc1)SCC2 | i | >57 |
| COC(=O)CC[C@@H](C)[C@@H]1CC[C@@H]2[C@@H]3CC[C@H]4C[C@@H](O)CC[C@@]4(C)[C@@H]3CC[C@]21C | i | . |
| COc1ccc2ccccc2c1C1CC(=O)N2CN(C)CSC2=C1C#N (stereo not drawn) | i | >57 |
| Nc1nc2n(n1)C(c1cccc(Cl)c1)CC(c1ccc(F)cc1)N2 (stereo not drawn) | i | . |
| COc1ccc(-c2cc(C(=O)O)c3ccccc3n2)c(OC)c1 | i | . |
| COC(=O)c1ccccc1NC(=O)CN1CCC(n2nnc3cc(F)ccc32)CC1 | i | >57 |
| Cc1n[nH]c(=O)nc1NCc1ccco1 | i | >57 |
| COc1ccc(-c2cc(=O)n(-c3nc4ccccc4[nH]3)[nH]2)cc1 | i | . |
| O=c1c2[nH]c3ccc(F)cc3c2ncn1CCN1CCOCC1 | i | . |
| CC(NC(=O)c1ccc2c(c1)OCO2)C(c1cccs1)N1CCOCC1 (stereo not drawn) | i | >57 |
| O=C1CC(c2ccccc2)CC(O)=C1C=NCc1ccco1 (stereo not drawn) | i | >57 |
| CCC(c1nnnn1Cc1cccs1)N1CCN(C2CCCC2)CC1 (stereo not drawn) | i | >57 |
| COc1ccc(CN2C(=O)CCC2(C)C(=O)NC2CCCCCC2)cc1 (stereo not drawn) | i | >57 |
| COc1ccc(NC(=O)c2cc(S(=O)(=O)N3CCCCC3)ccc2N2CCCCC2)cn1 | i | >57 |
| Cc1cc2c(nn1)CCC/C2=N\O | i | >57 |

Rewritten with values under each structure: 4 of the compounds above
Value order – YjeE inh	Bst PK mod
O=C1CC(c2ccccc2)CC(O)=C1C=NCc1ccco1 (stereo not drawn)
 : i	>57
CCC(c1nnnn1Cc1cccs1)N1CCN(C2CCCC2)CC1 (stereo not drawn)
 : i	>57
COc1ccc(CN2C(=O)CCC2(C)C(=O)NC2CCCCCC2)cc1 (stereo not drawn)
 : i	>57
COc1ccc(NC(=O)c2cc(S(=O)(=O)N3CCCCC3)ccc2N2CCCCC2)cn1
 : i	>57

Additional structures follow:
| molecule | YjeE inh | Bst PK mod |
| --- | --- | --- |
| COc1ccccc1COCC(O)CNCC1(N2CCCCC2)CCCCC1 (stereo not drawn) | i | >57 |
| O=c1c(-c2ccc(Cl)cc2)nc2cnc(N3CCNCC3)nc2n1-c1ccccc1 | i | . |
| COC(=O)c1ccccc1NC(=O)Cn1cc2c(n1)CCC(C)C2 (stereo not drawn) | i | . |
| CCOC(=O)C1CCCN(Cc2nc(N)nc(Nc3ccccc3)n2)C1 (stereo not drawn) | i | >57 |
| COc1cccc(C2CC(c3ccc(Cl)cc3Cl)Nc3nc(N)nn32)c1 (stereo not drawn) | i | . |
| Cc1ccc(F)cc1NC(=O)c1ccc2c(c1)OCO2 | i | >57 |
| COC(=O)C1=C(C)N(C)C(C)=C(C(=O)OC)C1c1cccc(Br)c1 | i | . |
| O=C(CC1Sc2ccccc2NC1=O)OCC(=O)N1CCc2ccccc21 (stereo not drawn) | i | >57 |
| CCC(c1nnnn1Cc1ccco1)N1CCN(C(=O)c2ccco2)CC1 (stereo not drawn) | i | >57 |
| Cc1ccc(-c2cc(C(=O)Nc3c(C#N)cnn3C)no2)cc1 | i | . |
| CCc1nc2c(n1O)CCc1nonc1-2 | i | >57 |
| CCN(CC)c1ccc(NC(=O)c2ccco2)c(C)c1 | i | >57 |
| CCOc1ccccc1N1CCN(Cc2cccc(OC)c2O)CC1 | i | >57 |
| Cc1ccc(-c2nn(C)c(=O)c3ccccc23)cc1CNC(=O)CN1CCOCC1 | i | >57 |
| COc1ccccc1N(CN1CCCC1=O)C(=O)c1c(F)cccc1Cl | i | >57 |
| COc1ccc(C2C(C(=O)NCc3ccccn3)c3cc(OC)c(OC)cc3C(=O)N2C)cc1 (stereo not drawn) | i | >57 |
| COc1ccccc1-c1coc2c(CN3CCN(C)CC3)c(O)ccc2c1=O | i | . |
| O=C(c1ccccc1)N1CCCCC(Sc2nnc3ccccn23)C1=O (stereo not drawn) | i | >57 |
| CCc1c(C)nc2ncnn2c1N1CCC(C(=O)NCc2cccc(OC)c2)CC1 | i | >57 |
| O=S(=O)(CCc1nc2ccccc2o1)c1ccc(Cl)cc1 | i | >57 |

Single records, as listed above. Order of values: YjeE inh | Bst PK mod
Record of `CCN(CC)c1ccc(NC(=O)c2ccco2)c(C)c1` → i | >57
Record of `COc1ccccc1-c1coc2c(CN3CCN(C)CC3)c(O)ccc2c1=O` → i | .
Record of `COc1ccccc1COCC(O)CNCC1(N2CCCCC2)CCCCC1` (stereo not drawn) → i | >57
Record of `O=C(NCCc1ccccc1)C(c1cccs1)N(C(=O)c1csnn1)C1CC1` (stereo not drawn) → i | >57
Record of `CCC1Oc2ccccc2N(CC(=O)NCCCN2CCCCC2CC)C1=O` (stereo not drawn) → i | >57

(cont.)
| molecule | YjeE inh | Bst PK mod |
| --- | --- | --- |
| O=C(Nc1cnc2sccn2c1=O)c1ccccc1Cl | i | >57 |
| COC(=O)c1ccc(C(NC(=O)OCc2ccccc2)/C(F)=C/[C@@H](C)C(=O)NCc2cc(F)cc(F)c2)cc1 (stereo partly drawn) | i | . |
| Cn1nnnc1SCC(=O)NCCc1ccc(Cl)cc1 | i | >57 |
| O=C(CCCN1C(=O)c2ccccc2C1=O)N1CCC(c2ccccc2)C1 (stereo not drawn) | . | >25.6 |
| COc1ccc(C2N=C(Nc3ccc(C)cc3)Nc3nc(C)cc(=O)n32)cc1 (stereo not drawn) | i | >57 |
| CN(C)c1nc(Nc2ccc(Cl)cc2)nc(OCC#N)n1 | i | 1.74* |
| CCC(=O)Nc1ccc(Oc2ccc3c(c2)C(=O)NC3=O)cc1 | i | >57 |
| CCOC(=O)Cn1c2c(c(=N)c3ccccc31)CCC2 | i | >57 |
| COC(=O)c1cc(NC(=O)C2CC=CCC2C(=O)O)cc(C(=O)OC)c1 (stereo not drawn) | i | . |
| c1ccc2c(c1)[nH]c1c(N3CCOCC3)ncnc12 | i | . |
| O=C1CC(c2ccco2)Cc2nc(Nc3nc(-c4ccccc4)c4ccccc4n3)ncc21 (stereo not drawn) | i | >57 |
| CC(C)CC(OC(=O)c1ccco1)C(=O)NC1CCCCC1 (stereo not drawn) | i | >57 |
| C=C(C)CSC1=C(C#N)C(c2ccsc2)CC(=O)N1 (stereo not drawn) | . | >25.6 |
| O=C(Cn1nnc(-c2ccc(Cl)cc2)n1)NCCC1=CCCCC1 | i | >57 |
| Cn1c(=O)c2c(nc(CN3CCOCC3)n2CC(O)CO)n(C)c1=O (stereo not drawn) | i | >57 |
| O=c1c(-c2cccs2)nc2cnc(N3CCNCC3)nc2n1-c1ccccc1 | i | . |
| CCOC(=O)c1cc2c(=O)n3cccc(C)c3nc2n(CCOC)c1=NC(=O)c1ccncc1 | i | >57 |
| CC1=C(C)C(=O)N(CCC(=O)O)C1=O | i | . |
| CCOC(=O)CN(C(=O)CSc1nnc2c(n1)[nH]c1ccc(OC)cc12)c1ccc(F)cc1 | i | . |
| COc1ccc(S(=O)(=O)NC(C(C)C)C(C)C)cc1OC | i | >57 |
| CS(=O)(=O)c1ccc2nc(NC(=O)CC3CCCC3)sc2c1 | i | >57 |
| Cc1noc(NS(=O)(=O)c2ccc(NC(=O)CCC3CCCC3)cc2)c1C | i | >57 |
| Nc1nonc1-c1nc2ccccc2n1Cc1ccc(F)cc1Cl | i | >57 |
| CCCCP(=O)(CCCC)c1ccccc1C(=O)O | i | . |
| CCC(=O)c1cc2c(cc1NC(=O)c1ccc(C)cc1)OCCO2 | i | >57 |
| O=C(Nc1ccc(Oc2ccccc2)cc1)C1CCN(c2ncccn2)CC1 | i | >57 |
| Nc1nc2ccccc2n1/N=C/c1ccc(-c2ccccc2)o1 | i | . |
| CCCC(C)C(=O)NCc1ccccc1OC (stereo not drawn) | i | . |
| CCOC(=O)CSc1nc(C)cc(Oc2ccc(=O)n(C)n2)n1 | i | . |
| CC(=O)NCCc1cc2ccc(C)c(C)c2[nH]c1=O | i | . |
| CCSC1=N/C(=C\c2ccc3c(c2)OCO3)C(=O)S1 | i | . |
| CN1CCN(c2ncc3nc(CCc4ccccc4)c(=O)n(C4CC4)c3n2)CC1 | i | . |
| COc1cc2[nH]c(=S)n(CCN3CCOCC3)c(=O)c2cc1OC | i | >57 |
| Cn1nnnc1Sc1ncnc2scc(-c3ccc(F)cc3)c12 | i | >57 |
| O=C(CN1C(=O)NC(Cc2ccccc2)C1=O)Nc1ccc(F)cc1 (stereo not drawn) | i | >57 |
| CCN(CC)CCN(Cc1cc2cc3c(cc2[nH]c1=O)OCCO3)C(=O)NC1CCCCC1 | i | >57 |
| c1ccc(-c2cc3c(N4CCOCC4)ncnc3s2)cc1 | i | . |
| Cc1nnc(SCCn2c(N3CCN(C)CC3)nc3c2c(=O)[nH]c(=O)n3C)s1 | i | >57 |
| O=C(Cn1cccc1)NCc1cccs1 | i | >57 |
| Cc1ccc(NCC(O)C(O)C(O)CO)cc1C (stereo not drawn) | i | >57 |
| COC(=O)c1cc(OC)c(OC)cc1NC(=O)c1oc2ccccc2c1C | i | >57 |
| OC(CN1c2ccccc2Sc2ccccc21)Cn1nnc2ccccc21 (stereo not drawn) | i | . |
| CCC(=O)Nc1sc(C(=O)N2CCCCC2)c(C)c1C#N | i | >57 |
| Cc1[nH]nc2c1C(c1ccc(F)cc1)C1=C(CC(C)(C)CC1=O)N2 (stereo not drawn) | i | >57 |
| Fc1cnc(N2CCOCC2)nc1N1CCc2ccccc21 | i | >57 |
| COc1cc(NC(=O)NCc2ccncc2)cc(OC)c1OC | i | >57 |
| CCCNC(=O)NC(C(=O)OC)C12CC3CC(CC(C3)C1)C2 (stereo not drawn) | i | >57 |
| CSc1ccc(CN(C)CC(=O)NC(=O)NC(C)(C)C)cc1 | i | >57 |
| Cc1ccc(S(=O)(=O)NCc2ccc(C(=O)NCCCN3CCN(C)CC3)cc2)cc1 | i | ? |
| O=C(O)C1=CCCNC1 | i | . |
| O=S(=O)(Nc1ccn(-c2ccccc2)n1)c1ccc(Br)cc1 | i | . |
| CNC[C@H](O)[C@H](O)[C@H](O)[C@H](O)CO | i | . |
| Nc1nncn1C(=O)CCCN1C(=O)c2ccccc2C1=O | i | >57 |
| CSc1nc2sc3c(c2c(=O)[nH]1)CCC(C)C3 (stereo not drawn) | . | >25.6 |
| COc1ccc(C2C(C(=O)Nc3cccc(C)n3)c3ccccc3C(=O)N2C)cc1OC (stereo not drawn) | i | >57 |
| Cc1ccc2cc(C#N)c(N3CCCN(C(=O)C4CCCO4)CC3)nc2c1C (stereo not drawn) | i | >57 |
| CCOC(=O)c1sc(=NC(=O)c2ccc(S(=O)(=O)N3CC(C)OC(C)C3)cc2)n(C)c1C (stereo not drawn) | i | >57 |
| Cc1ccc(C(=O)CC2(O)C(=O)N(Cc3ccccc3Cl)c3ccccc32)o1 (stereo not drawn) | i | >57 |
| CCN(CC)CCOC(=O)C1(c2ccc(OC)c(OC)c2)CCCC1 | . | >25.6 |
| CNC(=O)CN(Cc1ccccc1)S(=O)(=O)c1ccccc1 | i | >57 |

Further results.
| molecule | YjeE inh | Bst PK mod |
| --- | --- | --- |
| c1coc(-c2nnc(SCc3nc4ccccc4[nH]3)o2)c1 | i | >57 |
| Nn1c(SCc2cn3ccsc3n2)nnc1-c1ccncc1 | i | >57 |
| CCOC(=O)Cn1c(C)nc2ccccc21 | i | . |
| Cc1cc(N2CCCCC2)nc(SCc2ccc(C#N)cc2)n1 | i | >57 |
| Cc1cc(NC(=O)CSc2nnc(-c3ccc(S(=O)(=O)N4CCCC4)cc3)n2C)no1 | i | >57 |
| CCc1ccc(NC2=NCC(=O)N2Cc2ccc3c(c2)OCO3)cc1 | i | >57 |
| NC(=O)COC(=O)CCCc1c[nH]c2ccccc12 | i | >57 |
| COc1ccc(NC(=O)Cn2nnc(-c3ccccc3N)n2)cc1OC | i | >57 |
| NC(=O)N/N=C1\CC[C@H](O)C[C@@H]1CC(=O)O | i | . |
| CCOC(=O)N1CCC(NC(=O)c2cc3ccccn3n2)CC1 | i | . |
| O=c1c(-c2cccc(F)c2)nc2cncnc2n1Cc1ccc(F)cc1 | i | . |
| O=C(NCC1CCCO1)c1c(O)c2cccc3c2n(c1=O)CC3 (stereo not drawn) | i | >57 |
| CCn1c(Sc2nc(C)nc3scc(-c4cccs4)c23)n[nH]c1=O | i | >57 |
| c1ccc2c(N3CCOCC3)nc(-c3ccoc3)nc2c1 | i | . |
| COC(=O)[C@@]1(Cc2ccc(OC)cc2)[C@@H]2[C@@H](CC(=O)[C@H]2CC(=O)C(=O)N(C)C)CN1C(=O)c1ccccc1 | i | . |
| CCOCCCNC(=O)C(NC(=O)c1ccccn1)c1ccc(C)cc1 (stereo not drawn) | i | >57 |
| COc1ccccc1N(CC(=O)NC1CCCCC1)S(C)(=O)=O | i | . |
| O=C(CSc1nc2c(c(=O)n1-c1ccc(F)cc1)SCC2)NCC1CCCO1 (stereo not drawn) | i | >57 |
| O=C(NCCc1cn2ccccc2n1)c1ccc(Br)o1 | i | . |
| CS(=O)(=O)N1CCC2(CC1)CN(Cc1nccs1)C2 | i | . |
